High-throughput results: PubChem, National Center for Advancing Translational Sciences (NCATS)
VDR inhibitor – vitamin D3 receptor (human) inhibition; P11473; VDR-SRC2-3 peptide fluorescence polarization, 2 h; Potency, µM, inactives show max response, negative = inhibition, most hits filed as inhibitors; 0.93% of 400,000 active; AID 504847; active means well fitted inhibition curve with a large enough effect; inconclusive means small, poorly fitted or top-dose-only effect, or another doubt; inactive means no such curve, though single readings can be large or run the other way; further: series mostly up to about 120 µM
Target sequence (P11473 whole entry, looked up): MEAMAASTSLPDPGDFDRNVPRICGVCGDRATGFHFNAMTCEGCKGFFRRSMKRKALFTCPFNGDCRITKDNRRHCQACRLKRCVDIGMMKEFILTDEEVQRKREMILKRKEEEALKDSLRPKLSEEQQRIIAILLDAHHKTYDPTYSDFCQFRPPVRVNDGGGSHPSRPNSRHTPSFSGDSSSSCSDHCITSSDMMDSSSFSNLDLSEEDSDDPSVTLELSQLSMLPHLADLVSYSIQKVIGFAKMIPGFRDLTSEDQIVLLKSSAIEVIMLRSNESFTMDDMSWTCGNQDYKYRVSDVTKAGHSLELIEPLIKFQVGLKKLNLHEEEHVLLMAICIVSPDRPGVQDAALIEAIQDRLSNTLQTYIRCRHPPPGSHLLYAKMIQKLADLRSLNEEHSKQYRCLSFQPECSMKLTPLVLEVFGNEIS
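Compounds are added to VDR with labelled SRC2-3 coactivator peptide and held 2 h at room temperature. Inhibition of the VDR–peptide interaction is then read as a change in fluorescence polarization.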
An asterisk follows results filed as active; u = inconclusive; [ ] = dose if it differs, or a comment. On the % scale 0 is the no-effect control and ±100 the full control effect; potency means the concentration at half of the fitted maximal effect. These rows are one share of the data, so the mix of outcomes need not match the whole.

VDR inhibitor | structure
-13.6% | O=C(C1CC1)N1N=C(c2ccc(F)cc2)CC1(O)C(F)(F)F (stereo not given)
16.6% | CCCCNC(=O)Nc1ccccc1C(=O)Nc1ccc(OC)cc1
7.3% | CCOc1ccc(-c2nc(Cn3c(=O)cc(-c4ccccc4)c4c(C)nn(C)c43)c(C)o2)cc1
7.4% | O=C(CN1C(=O)c2cccc3cccc1c23)N1CCN(c2cccc(Cl)c2)CC1
21.9% | CCOc1ccccc1NC(=O)c1ccc2ccccc2c1
4.1% | CCN(Cc1ccccc1)Cc1c(O)ccc2oc(C)c(C(=O)Nc3ccccc3C)c12
-4.4% | CCCCn1c(-c2ccc(Cl)c(Cl)c2)nc2cc3[nH]c(=O)c(C(C)C)nc3cc21
-1.7% | COc1cccc(/C=C/C(=O)N(C)CC(=O)Nc2ccc(Cl)c(C(F)(F)F)c2)c1
-2.7% | O=C(NC1CCCCCC1)c1ccc(OCC2CCCO2)cc1 (stereo not given)
-3.4% | O=C(c1ccc([N+](=O)[O-])cc1)N1CCN(Cc2ccccc2)CC1
10.2% | CCOC(=O)C1CCN(Cc2ccc(OC)cc2OC)CC1
-3.2% | O=C(Nc1ccccc1Oc1cccnc1)C1CCCN(Cc2cccc(Cl)c2)C1 (stereo not given)
-19.6% | CCN1CCc2c(OCC(=O)N3CCCc4ccccc43)cccc2C1=O
7.6% | Cc1ccc(C)c(NS(=O)(=O)c2cc(C(=O)NCCC3=CCCCC3)ccc2C)c1
29.4% | CCOc1ccccc1C(=O)NCC(=O)OCC(=O)NCCc1ccc(S(N)(=O)=O)cc1
-5.1% | CC(C)c1ccc(/C=C/C(=O)Nc2nncs2)cc1
2.7% | O=[N+]([O-])c1ccc(N2CCN(S(=O)(=O)c3ccccc3[N+](=O)[O-])CC2)cc1N1CCc2ccccc2C1
-25.9% | Cc1ccc(-c2nc3cccc(C)n3c2Nc2ccc3c(c2)OCCO3)cc1
8.0% | Cc1ccc(-n2c(O)c(C=NC3CCS(=O)(=O)C3)c3ccccc3c2=O)cc1C (stereo not given)
-3.3% | Cc1cc(C)nc(N2CCCC(C(=O)Nc3nnc(C)s3)C2)n1 (stereo not given)
8.6% | CCOC(=O)c1c(C)[nH]c(C(=O)OCC(=O)Nc2ccc(OCC)cc2)c1C
-6.1% | O=C(NCc1nc2ccccc2[nH]1)C1=C[C@@H](c2ccccc2)C[C@@H](OCc2ccc(CO)cc2)O1
9.0% | CC(C)OCCCNC(=O)c1ccc(Br)cc1
-12.4% | Cc1ccc(-c2nnc(SCC(=O)NNC(=O)COc3ccccc3C)n2C)cc1
2.2% | OC[C@@H](O)C1OC2NC(=S)OC2C1O (stereo not given in full)
-9.3% | Clc1cc(Cl)cc(C2=NC(Cc3ccccc3)CO2)c1 (stereo not given)
5.5% | CCOc1ccc(CC(=O)N2CCC3(CC2)NCCc2[nH]cnc23)cc1
6.3% | CCN1CCc2c(sc(NC(=O)Nc3ccc(Cl)c(Cl)c3)c2C(N)=O)C1
8.0% | COc1ccc2c(CNCCc3ccccc3)c(C(=O)O)n(Cc3cccc(F)c3)c2c1
-7.5% | CCN1CCN(c2c(Cl)cccc2NC(=O)c2cccs2)CC1
-1.8% | Cn1cc(Br)c(C(=O)Nc2ncc(Br)s2)n1
-28.5% | CCc1cccc(C)c1NC(=O)C1=C(C)C(=O)OC12CCC(C)CC2 (stereo not given)
u | CN(C)S(=O)(=O)N(CC(=O)NCCSc1ccc(Cl)cc1)c1ccccc1
-11.3% | CNC(=O)CSCCn1c(SCC(=O)NC)nc2ccccc2c1=O
-10.0% | COc1ccc(N2CCN(C(=O)CSc3nnc4c(C)cc5ccc(C)c(C)c5n34)CC2)cc1
8.0% | COc1ccc(C2=CC(c3ccc(F)cc3)n3ncc(C(=O)Nc4ccc(C)cc4)c3N2)cc1 (stereo not given)
3.6% | CS(=O)(=O)N(CC(=O)Nc1ccccc1C(=O)N1CCCC1)c1cccc([N+](=O)[O-])c1
1.6% | CCOc1ccc(CCNS(=O)(=O)c2cn(C)cn2)cc1OCC
-1.0% | O=C(c1cnccn1)N1CCN(S(=O)(=O)c2cccc(Cl)c2)CC1
17.0% | CC(=O)Nc1ccc(S(=O)(=O)N2CCC(=O)Nc3ccccc32)cc1
-2.8% | Cc1ccc(NC(=O)c2cccc(C(=O)Nc3ccc(C)cc3C(=O)O)c2)c(C(=O)O)c1
-16.3% | Cc1cccc(N2CCN(C(=O)c3ccc(Cl)c(S(=O)(=O)N4CCc5ccccc5C4)c3)CC2)c1C
1.6% | COc1ccc(NC(=O)N2CCC(CO)(CC3CCCCO3)CC2)c(OC)c1 (stereo not given)
1.8% | COc1ccc(S(=O)(=O)N(CC(=O)Nc2ccc3c(c2)OCO3)c2ccc(C)cc2)cc1
2.7% | CCCC1=NN(c2ccc([N+](=O)[O-])cc2)C(=O)/C1=C/N(C)C
-16.9% | CC(c1ccccc1)C1CC(=O)N(Cc2ccco2)C1=O (stereo not given)
12.0% | C=C(C)COc1ccc(-c2n[nH]c(C)c2Oc2ccccc2OC)c(O)c1
-20.0% | CCc1cc(=O)oc2cc(C)cc(OCC(=O)N3CCC(C(=O)O)CC3)c12
-4.2% | O=C1C=C(c2cccc3c2sc2ccccc23)C[C@@H](c2ccc(Cl)cc2)C1
39.8µM* | Cc1nn(C)c(C(=O)Sc2cccc(Cl)c2)c1[N+](=O)[O-]
-14.2% | O=C1Cc2cccc3cccc1c23
-28.1% | Cc1cc(-n2c(C)cc(C(=O)CSc3ccc4c(c3)OCCO4)c2C)no1
9.2% | CCN(CC)S(=O)(=O)c1ccc(N2CCOCC2)c(NCC(=O)Nc2ccc(F)cc2)c1
-10.5% | COc1cccc(OC)c1C(=O)Nc1nnc(C)s1
-14.1% | Cc1cc2ncn(CCC(=O)NC3CCCC3)c2cc1C
3.8% | CC(=O)CC[N+](C)(C)C

Going on with the list.
VDR inhibitor | structure
-4.9% | Cc1cccn2c(=O)c(/C=C(\C#N)C(N)=O)c(N3CCN(c4ccccc4)CC3)nc12
10.9% | NC[C@@H]1O[C@@H](O[C@H]2[C@H](O)[C@H](O[C@@H]3O[C@H](CO)[C@@H](O)[C@H](N)[C@@H]3O)[C@@H](N)C[C@H]2N)[C@H](N)C[C@@H]1O
9.8% | COc1ccc(C(NC(=O)CN2C(=O)NC3(CCc4ccccc43)C2=O)c2ccccc2)cc1 (stereo not given)
6.9% | S=C(NCc1ccccn1)Nc1cccc(Cl)c1
7.2% | CSc1ccc(CN(C)Cc2cc(=O)oc3c(C)c(C)ccc23)cc1
-4.2% | Cc1c(C(=O)Nc2ccc(C(=O)O)cc2)cnn1C
6.2% | Cc1nnc(SCC(=O)N2CCN(Cc3ccccc3)CC2)s1
2.2% | COC(=O)C1C(=O)C2=C(CC1C)NC(C)=C(C(=O)OC(C)C)C2c1ccc(C)o1 (stereo not given)
4.0% | CC(=O)Nc1c(C(=O)c2ccc(F)cc2)oc2ccccc12
-1.3% | COc1ccc(Oc2ncc3nc(-c4cc(F)cc(F)c4)c(=O)n(C)c3n2)cc1
5.0% | COc1ccc(CCNc2nc(=S)[nH]c3cc(OC)c(OC)cc23)cc1OC
3.6% | Cc1ccc(-c2csc3ncnc(N4CCN(c5ccccc5O)CC4)c23)cc1
0.5% | CCOC(=O)C(O)(C1C(=O)CC(C)(C)CC1=O)C(F)(F)F (stereo not given)
15.2% | CCOC(=O)c1ccc(CNC(=O)CSc2nnc(-c3ccncc3)o2)cc1
-4.9% | Cc1ccccc1-c1nnn(CC(=O)NCc2ccc3c(c2)OCO3)n1
-4.1% | CCCc1cc(C(=O)Nc2c(C)n(C)n(-c3ccccc3)c2=O)no1
8.0% | O=C(Nc1ccccc1)N(Cc1cccnc1)Cc1ccco1
7.9% | COc1ccc(N(C)C(=O)c2ccc3c(c2)nnn3C)cc1
-9.7% | Cc1ccccc1-n1c(=O)n(CCc2ccccc2)c(=O)c2[nH]cnc21
14.0% | O=C(CCCc1nc2ccccc2s1)NC1CCOC1=O (stereo not given)
9.3% | O=S1(=O)CC(O)C(Nc2ccccc2Cl)C1 (stereo not given)
-10.3% | CC(C)Cc1cc(C(=O)N2CCC(N3CCC(C(=O)N4CCOCC4)CC3)CC2)n[nH]1
8.0% | Cc1ccc(N2C(=O)C3C4C=CC(C4)C3C2=O)cc1 (stereo not given)
7.1% | Nc1nc(SCC(=O)NCc2ccccc2)[nH]c(=O)c1NC(=O)c1ccccc1F

Sorted by SMILES length (rising): 3 of the compounds above
VDR inhibitor | structure
9.3% | O=S1(=O)CC(O)C(Nc2ccccc2Cl)C1 (stereo not given)
7.1% | Nc1nc(SCC(=O)NCc2ccccc2)[nH]c(=O)c1NC(=O)c1ccccc1F
-10.3% | CC(C)Cc1cc(C(=O)N2CCC(N3CCC(C(=O)N4CCOCC4)CC3)CC2)n[nH]1

Next records follow.
VDR inhibitor | structure
31.0%[activator] | COc1ccc(S(=O)(=O)N2CCc3ccccc32)cc1OC
-4.5% | Cc1cccc(OCc2n(CC(=O)OC3CC(C)CCC3C(C)C)c3ccccc3[n+]2C)c1 (stereo not given)
8.6% | Cc1cccc(C)c1NC(=S)NCc1ccccc1
-10.2% | COc1ccc(-c2nc(CN3CCC(c4ccccc4)CC3)c(C)o2)cc1OC
-6.2% | COc1ccc(S(N)(=O)=O)cc1C(=O)OCC1CCCCC1
-7.3% | Cc1ccc(NC(=O)CN(C)S(=O)(=O)c2cnc[nH]2)cc1C
-10.9% | Cc1ccc2nc(NCC(=O)NN)nc(-c3ccccc3)c2c1
-12.9% | COc1cc2[nH]c3c(=O)n(CCN4CCCCC4)cnc3c2cc1OC
6.8% | Cn1cnc2c(=O)oc3ccc(S(=O)(=O)Nc4ccc(F)cc4)cc3c21
4.9% | O=[N+]([O-])c1ccccc1Nc1ccc(O)cc1
-26.0% | O=C(NC(=S)Nc1ccccc1C(=O)O)c1ccc2ccccc2c1
-5.6% | CN(C(=O)c1cc(COc2ccc(F)cc2Cl)on1)C1CCCc2ccccc21 (stereo not given)
4.3% | Cc1ccc(N2CC(=O)N(NC(=O)CN3CCN(c4ccccc4)CC3)CC2=O)cc1
-13.9% | O=C1C=C(c2cc(C(F)(F)F)cc(C(F)(F)F)c2)C[C@@H](c2ccc(Cl)cc2)C1
2.4% | CSc1nc(N)nc2c1ncn2Cc1ccccc1
-8.5% | COc1ccc(NC(=S)Nc2nc(CC(=O)Nc3ccccc3OC)cs2)cc1
0.3% | COc1cc(CNCc2c[nH]c3ccccc23)cc(OC)c1
-4.1% | CN(C)CCCN(C(=O)c1ccc(S(=O)(=O)N2CCc3ccccc32)cc1)c1nc2ccc(Cl)cc2s1
-17.4% | Cc1ccccc1CC(=O)NC1CCN(Cc2ccccc2)CC1
-12.9% | COc1ccc(NC(=O)CC2C(=O)N(c3ccccc3)C(=O)N2C2CCCCC2)cc1 (stereo not given)
-3.8% | CCCCN(Cc1ccccc1)C(=O)c1oc(=O)c2ccccc2c1-c1ccc(C)cc1
5.5% | O=C(c1csc2c1CCCC2)N1CCCCC1
-0.2% | Cc1ccc(S(=O)(=O)N(CC(=O)O)Cc2ccccc2)cc1
-8.8% | CSCCC(NC(=O)/C(=C/c1ccco1)NC(=O)c1ccco1)C(=O)O (stereo not given)
11.7% | CCn1cc(CN2CCC(C(=O)Nc3ccc(Oc4cccnc4)cc3)CC2)cn1
-10.7% | CSc1cnc2c(N)nc(N(C)C)nc2n1
-14.1% | CCCCNC(=O)CCn1c(=O)c2ccccc2n(CC(=O)N2CC(C)CC(C)C2)c1=O (stereo not given)
9.1% | Cc1ccc(Cn2c(C)c(CNC(C)c3ccccc3)c(C(=O)O)c2C)cc1 (stereo not given)
-19.0% | CCOc1ccc(-c2nc(S(=O)(=O)c3ccccc3)c(N3CCC(C(N)=O)CC3)o2)cc1
-12.4% | CC(C)(C)c1cc(NC(=O)c2cccc([N+](=O)[O-])c2)no1
u | CC1CCC(NC(=O)CCS(=O)(=O)c2ccc3c(c2)NC(=O)CO3)CC1 (stereo not given)
-19.1% | CCOC(=O)C1=C(COC(=O)C2(C)CC2(Cl)Cl)NC(=O)NC1c1ccccc1 (stereo not given)

Of the compounds above, these have a thiophene ring, fused or not:
VDR inhibitor | structure
6.3% | CCN1CCc2c(sc(NC(=O)Nc3ccc(Cl)c(Cl)c3)c2C(N)=O)C1
-7.5% | CCN1CCN(c2c(Cl)cccc2NC(=O)c2cccs2)CC1
-4.2% | O=C1C=C(c2cccc3c2sc2ccccc23)C[C@@H](c2ccc(Cl)cc2)C1
3.6% | Cc1ccc(-c2csc3ncnc(N4CCN(c5ccccc5O)CC4)c23)cc1
5.5% | O=C(c1csc2c1CCCC2)N1CCCCC1

The results go on.
VDR inhibitor | structure
-16.9% | O=C(O)C1=C(Nc2ccccc2)OCC1=O
-8.9% | COc1ccc(-c2cc(C(=O)Nc3cnn(Cc4ccc(F)cc4)c3)no2)cc1OC
-10.5% | NC(=O)CSc1nc(C23CC4CC(CC(C4)C2)C3)nc2ccccc12
-20.1% | COC(=O)CCCSc1nccn1-c1ccccc1
-8.2% | CN(Cc1ccccc1)S(=O)(=O)c1ccc(Cl)c(C(=O)NCCc2ccccn2)c1
-14.2% | Cc1ccccc1-n1c(Cn2c(=O)sc3ccccc32)nnc1SC(C)C
-22.2% | Cc1cc(Cn2nc(C(=O)NCc3cccc(Br)c3)cc2-c2ccccc2)on1
-12.2% | COc1ccc(N(CC(=O)NC2CCCC2)C(=O)CCC(=O)Nc2nc(C)cs2)cc1OC
-16.7% | CCN(C(=O)COC(=O)c1ccc(COc2ccc3c(C)cc(=O)oc3c2)cc1)C1CCS(=O)(=O)C1 (stereo not given)
